Screens: PubChem, National Center for Advancing Translational Sciences (NCATS)
VDR inh – Inhibitors of the vitamin D receptor (VDR): qHTS; Potency, µM, for the others: max response, negative = inhibition, hits mostly inhibitors; VDR-SRC2-3 peptide fluorescence polarization, 2 h; Vitamin D3 receptor (Homo sapiens), P11473; actives 0.93% (n = 400,000); active = well fitted inhibition curve with a large enough effect; inconclusive = small, poorly fitted or top-dose-only effect, or another doubt; inactive = no such curve, though single readings can be large or run the other way; also: series mostly up to about 120 µM
Target sequence (P11473 whole entry, looked up): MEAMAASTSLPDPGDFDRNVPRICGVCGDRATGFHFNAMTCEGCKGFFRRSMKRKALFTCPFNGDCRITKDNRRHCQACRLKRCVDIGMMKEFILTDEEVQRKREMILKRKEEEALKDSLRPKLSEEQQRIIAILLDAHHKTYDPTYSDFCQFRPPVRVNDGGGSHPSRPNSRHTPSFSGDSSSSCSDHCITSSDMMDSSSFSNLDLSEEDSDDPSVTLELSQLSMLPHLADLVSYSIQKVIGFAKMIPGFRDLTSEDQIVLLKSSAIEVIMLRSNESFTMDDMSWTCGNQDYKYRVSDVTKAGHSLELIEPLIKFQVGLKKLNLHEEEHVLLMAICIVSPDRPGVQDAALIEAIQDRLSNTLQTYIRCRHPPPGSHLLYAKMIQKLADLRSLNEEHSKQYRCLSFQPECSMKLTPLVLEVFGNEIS
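Compounds are added to VDR with labelled SRC2-3 coactivator peptide and held 2 h at room temperature. Inhibition of the VDR–peptide interaction is then read as a change in fluorescence polarization.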
Starred values were filed as active, the others as inactive; ? = inconclusive; & = joins results of further samples; [ ] = dose if it differs, or a comment. % is scaled to controls: 0 for no effect and ±100 for the full control effect; potency is read from the fitted curve at half-maximal effect. This is a subset; rates above refer to the full screens.

SMILES	VDR inh
Cc1cc(OC(=O)c2cc(C(F)(F)F)cc(C(F)(F)F)c2)c([N+](=O)[O-])c(=O)[nH]1	-7%
COCC(C)Nc1nc(C)c(C(C)=O)s1 (stereo not given)	7%
COc1ccccc1Nc1nc2c(C)cccc2cc1C#N	-10%
COc1ccc(N2CC(C)Cn3c2nc2c3c(=O)n(Cc3ccc(C)cc3)c(=O)n2C)c(OC)c1 (stereo not given)	-2%
Cc1cccc(C)c1NC(=O)CSCC(=O)O	-4%
O=C(Nc1cc(C(F)(F)F)ccc1N1CCOCC1)c1cccnc1	2%
O=C(NNC(=O)c1ccc(F)cc1F)c1ccc2c(c1)OCO2	-16%
COc1ccccc1C(=O)COC(=O)CCN=C1NS(=O)(=O)c2ccccc21	-6%
C(=N/Nc1nccs1)/c1cccnc1	15%
COc1cccc(OC)c1NC(=O)Cn1nc(C)c2ccccc2c1=O	-23%
CN1CCN(c2ccc(NC(=O)COc3ccccc3[N+](=O)[O-])cc2)CC1	-25%
COc1ccc(C2=NOC(C(=O)NCCN3CCOCC3)C2)cc1 (stereo not given)	0%
O=c1c2c3nc4ccccc4nc3n(/N=C/c3ccco3)c2ncn1CCC1=CCCCC1	-5%
CCOc1ccc(OCC(=O)Nc2cccc(S(=O)(=O)NC3=NCCC3)c2)cc1	-8%
CCN(CC)c1ncnc2c1cnn2-c1cc(Cl)ccc1C	1%
CC1Nc2ncnc(N3CCc4ccccc4C3)c2N(Cc2ccc(Cl)cc2)C1=O (stereo not given)	?
CCc1cc(=O)oc2c3c(cc(OCC(=O)N[C@H](C(=O)O)[C@H](C)CC)c12)OC(C)(C)CC3	-23%
C[C@]12c3[nH]c4ccc(Cl)cc4c3CCN1C(=O)[C@@H](CC(=O)NCCC1=CCCCC1)C[C@@H]2C(=O)N1CCOCC1	-12%
CCN(Cc1ccncc1)C(=O)C1CCN(S(=O)(=O)c2cccs2)CC1	19%
CSc1ccc(CCNC(=O)NCc2noc3ccccc23)cc1	-7%
Cc1ccc(SC(C)C(=O)N2CCC(C(N)=O)CC2)cc1 (stereo not given)	-12%
CN(C)C(=O)C(CCN1CCC(O)(c2ccc(Cl)cc2)CC1)(c1ccccc1)c1ccccc1	0%&-11%&2%&4%
COc1ccc2nc(/N=C/c3c(C)[nH]n(-c4ccc(C)cc4C)c3=O)sc2c1	-13%
CCOC(=O)c1ccc(CNC(=O)CSc2nnnn2-c2ccc(Cl)cc2)o1	5%
COC(=O)c1ccc(OC)cc1OCC(=O)N1CCN(c2ccc(F)cc2)CC1	-6%

Molecules above with a nitro group on carbon:
SMILES	VDR inh
Cc1cc(OC(=O)c2cc(C(F)(F)F)cc(C(F)(F)F)c2)c([N+](=O)[O-])c(=O)[nH]1	-7%
CN1CCN(c2ccc(NC(=O)COc3ccccc3[N+](=O)[O-])cc2)CC1	-25%

Next section
SMILES	VDR inh
COc1ccccc1NCC(=O)N1CCN(S(=O)(=O)c2ccccc2)CC1	10%
Cc1nc2ccc([N+](=O)[O-])cc2c(=O)n1Cc1ccc([N+](=O)[O-])cc1	-7%
O=C(c1ccc(CS(=O)(=O)c2ccc(Br)cc2)o1)N1CCCCCC1	-9%
Oc1oc(-c2ccccc2)nc1/C=N/c1nccs1	-19%
Cc1nc2nc(CNC(=O)OC(C)(C)C)nn2c(C)c1CCC(=O)NCc1ccc(F)cc1	6%
COc1ccc(OC)c(NC(=S)N2CCN(c3ccccn3)CC2)c1	-1%
O=S1(=O)C2CC3C=CC2(O3)C(OCc2ccc(Cl)c(Cl)c2)C(Cc2ccccc2)N1Cc1ccc(Cl)c(Cl)c1 (stereo not given)	1%
Cc1[nH]nc(-c2ccc(OCc3cnn(-c4ccccc4)c3)c(C)c2O)c1Oc1ccccc1	-18%
CC(C)c1ccc(N=C2N=C(N)c3ccccc32)cc1	3%
Cc1cccc(NS(=O)(=O)c2cc(C(=O)N3CCOCC3)ccc2Cl)c1	-4%
COc1ccc(CNC(=O)/C=C/C(=O)O)cc1	-8%
O=C1c2ccccc2NC(c2cccc(F)c2)N1Cc1ccccc1 (stereo not given)	12%
COc1ccccc1S(=O)(=O)n1cc(Cc2ccccc2)c(N)n1	4%
Cc1cc(NC(=O)CCSc2nc(-c3ccco3)cc(C(F)(F)F)n2)n(-c2ccccc2)n1	5%
COc1ccc(C(=O)Nc2cc(OC)cc3cccnc23)cc1	-12%
Cc1c(CCOC(=O)C23CC4(C)CC(C)(CC(C)(C4)C2)C3)sc[n+]1CC(=O)c1ccccc1	-19%
N#Cc1cc2c(=O)n3ccccc3nc2n(-c2ccccc2Cl)c1=O	-18%
CN(/N=C/c1cccnc1)c1cnc2ccccc2n1	-13%
COCCn1c(C)cc(C(=O)COc2ccc(C)nc2[N+](=O)[O-])c1C	-9%
Cn1c(N)c(C(=O)COC(=O)C2(c3ccccc3F)CCCC2)c(=O)n(C)c1=O	-3%
Cc1cccc(-n2c(C)cc(C(=O)C(=O)Nc3nncs3)c2C)c1	31%[activator]
Cc1cc(C)c2c(CC(=O)Nc3c(C(=O)Nc4ccc(Cl)cc4)oc4ccccc34)coc2c1	13%
COc1ccc(C(=O)NC2CC(C)(C)Cc3c2cnn3-c2ccccc2C)o1 (stereo not given)	-16%
CCCc1cc(=O)n2[nH]c(NCc3ccc(OC)cc3)nc2n1	-20%
O=C(/C(=C/O)N=Nc1ccccc1Cl)c1ccccc1	5%

By substructure: the compounds so far containing an NH in an aromatic ring
SMILES	VDR inh
Cc1cc(OC(=O)c2cc(C(F)(F)F)cc(C(F)(F)F)c2)c([N+](=O)[O-])c(=O)[nH]1	-7%
C[C@]12c3[nH]c4ccc(Cl)cc4c3CCN1C(=O)[C@@H](CC(=O)NCCC1=CCCCC1)C[C@@H]2C(=O)N1CCOCC1	-12%
COc1ccc2nc(/N=C/c3c(C)[nH]n(-c4ccc(C)cc4C)c3=O)sc2c1	-13%
Cc1[nH]nc(-c2ccc(OCc3cnn(-c4ccccc4)c3)c(C)c2O)c1Oc1ccccc1	-18%
CCCc1cc(=O)n2[nH]c(NCc3ccc(OC)cc3)nc2n1	-20%

Next compounds:
SMILES	VDR inh
Cc1ccccc1C(=O)Nc1nnc(CC(=O)N/N=C/c2ccco2)s1	-6%
CCCCOc1ccc(-c2c(C#N)c(N)nc(SCC(N)=O)c2C#N)cc1	1%
CN(C(=O)CSc1nc2scc(-c3ccccc3)c2c(=O)[nH]1)c1ccccc1	11%
COc1ccc(C(=O)Nc2cccnc2Sc2ccc(Cl)cc2)cc1	12%
O=C(Nc1ncc(Cc2cccc(Cl)c2Cl)s1)c1ccc([N+](=O)[O-])cc1	7%
CC(C)C(C(=O)NC1CCCC1)N(CC1CCCO1)C(=O)CNS(=O)(=O)c1ccccc1 (stereo not given)	2%
CCSc1nnc2nc3[nH]c4c(C)cccc4c3nn12	5%
O=C(c1ccc(Cl)cc1)N1N=CCC1(O)c1ccc(Cl)cc1 (stereo not given)	-26%
O=C(NCCO)c1cc2c(s1)CCC2	22%
Cc1cc(C)cc(OCCn2c(CCNC(=O)C3CCCCC3)nc3ccccc32)c1	-5%&-4%
N#CCCn1cc(C(=O)CN2C(=O)C(=O)N(C3CCCC3)C2=O)c2ccccc21	-14%
CCN1CCN(c2ccc(NC(=O)c3ccc4c(c3)[nH]c(=O)n4Cc3ccc(F)cc3)cc2)CC1	6%
COc1ccc(/C=C/c2cc(OC)cc(=O)o2)cc1	12%
CCCCCCN1C=CC=C/C1=C\C=C(C#N)C#N	-3%
COc1cc(OC)cc(-n2c(=O)c3ccccc3n(CC(=O)NCCc3ccc(OC)c(OC)c3)c2=O)c1	0%
O=C(Nc1ccc(F)cc1)c1ccc(NC(=O)C2CCCO2)cc1 (stereo not given)	-13%
COc1ccc(CCn2cc3c(c2-c2ccccc2Br)c(=O)n(C)c(=O)n3C)cc1OC	8%
COc1cc(NC(=O)CCc2c(C)nc3cc(-c4ccccc4)nn3c2C)cc(OC)c1OC	-14%
CCN1CCN(Cc2c(O)ccc3c(C)c(-c4ccccc4)c(=O)oc23)CC1	9%
C[C@H](CO)N1C[C@H](C)[C@H](CN(C)S(=O)(=O)c2ccccc2)Oc2c(NS(C)(=O)=O)cccc2C1=O	16%
CCn1nc(-c2ccc(C)cc2)nc2c(=O)n(C)c(=O)nc1-2	?
O=[N+]([O-])c1ccc(N/N=C/c2ccccc2)cc1	23%
COc1cc(C(=O)Nc2ccc(Br)cc2C(=O)c2cc(OC)c(OC)c(OC)c2)cc(OC)c1OC	7%
Clc1ccc(CNc2ncccn2)cc1	-1%
NS(=O)(=O)c1ccc(CCNC(=O)COC(=O)c2ccc([N+](=O)[O-])o2)cc1	-3%

2 of the compounds above, with bars between the fields.
SMILES | VDR inh
Cc1ccccc1C(=O)Nc1nnc(CC(=O)N/N=C/c2ccco2)s1 | -6%
C[C@H](CO)N1C[C@H](C)[C@H](CN(C)S(=O)(=O)c2ccccc2)Oc2c(NS(C)(=O)=O)cccc2C1=O | 16%

(further entries)
SMILES	VDR inh
Cc1cccc2cc(CN(Cc3ccccc3)C(=S)NCCCN(C)C)c(=O)[nH]c12	3%
c1ccc(C(=C2CCCO2)c2ccccc2)cc1	-14%
COc1ccc(C)cc1S(=O)(=O)N1CCCCCC1	-6%
COc1ccccc1C(=O)Nc1ccccc1C(=O)NC1CCCCC1	-3%
COc1ccc(-c2nnc(COc3ccc(Br)cc3C)o2)cc1	-9%
O=C1NC(=S)S/C1=C\c1coc2ccc(O)cc2c1=O	-11%
O=C(COC(=O)CC1CC2CCC1C2)Nc1c(F)cccc1F (stereo not given)	-2%
CC(=O)Nc1ccc(S(=O)(=O)N(C)CC(=O)Nc2ccccc2N2CCCC2)cc1	5%
Cc1ccc(CNS(=O)(=O)c2cc3[nH]c(=O)c(=O)[nH]c3cc2C)cc1	19%
O=S(=O)(Cc1ccc(Cl)cc1)C1CCCCC1O (stereo not given)	8%
O=C(NC1CCCc2ccccc21)C12CC3CC(CC(O)(C3)C1)C2 (stereo not given)	12%
O=C(COC(=O)COc1ccc(Cl)cc1Br)NC1CCCCCC1	15%
CC(=O)c1ccc(NC(=S)N2CCN(c3ccccn3)CC2)cc1	5%
O=C(CSc1nc(-c2ccccc2)cc(=O)[nH]1)Nc1ccccc1	-5%
COC(=O)CN1C(=O)CSc2ccc(S(=O)(=O)Nc3ccc(C)c(Cl)c3)cc21	-1%
COc1ccc(/C(N)=N/OC(=O)CCc2ccccc2)cc1	-11%
CC1(C)CC(=O)C(C=NCC(N)=O)=C(O)C1	10%
Cc1ccc(S(=O)(=O)N2CCC(C(=O)Nc3ccc(C(C)C)cc3)CC2)cc1	0%
Cc1ccc(-c2ccc(=O)[nH]n2)cc1	-13%
Nc1ccc(O)c2c1C(=O)c1ccccc1C2=O	?
CCOC(=O)c1c(S(=O)(=O)NCC(=O)Nc2ccccc2F)c(C)n(C)c1C	7%
CCN(CC)c1ccc(/C=N/NC(=O)c2ccoc2C)c(O)c1	-21%
Cc1ccc(S(=O)(=O)Nc2n[nH]nc2C(=O)NC2CCCCC2)cc1	1%
O=c1c2ccccc2oc2ccc(NCCCn3ccnc3)cc12	-14%
Cc1cc(C)nc(N2CCCC(C(=O)NCc3cccs3)C2)n1 (stereo not given)	-1%

Already shown: an excerpt of the list.
SMILES	VDR inh
Cc1ccc(-c2ccc(=O)[nH]n2)cc1	-13%
Nc1ccc(O)c2c1C(=O)c1ccccc1C2=O	?
CCOC(=O)c1c(S(=O)(=O)NCC(=O)Nc2ccccc2F)c(C)n(C)c1C	7%
CCN(CC)c1ccc(/C=N/NC(=O)c2ccoc2C)c(O)c1	-21%
Cc1ccc(S(=O)(=O)Nc2n[nH]nc2C(=O)NC2CCCCC2)cc1	1%
O=c1c2ccccc2oc2ccc(NCCCn3ccnc3)cc12	-14%
Cc1cc(C)nc(N2CCCC(C(=O)NCc3cccs3)C2)n1 (stereo not given)	-1%

Next section:
SMILES	VDR inh
Cc1ccc2c(c1)N(C(C)C(=O)NCCc1ccccc1)C(=O)CO2 (stereo not given)	8%
CCN(CC(=O)Nc1ccccc1OC)C(=O)c1ccc2[nH]c3c(c2c1)CC(C)CC3 (stereo not given)	-9%
O=C(c1cccc(C(F)(F)F)c1)N1CCc2c([nH]c3ccccc23)C1C(F)(F)F (stereo not given)	0%
O=C(CN1c2cccc3cccc(c23)S1(=O)=O)NCc1ccc2c(c1)OCO2	-5%
O=C1CC(N2CCN(c3ccccc3)CC2)C(=O)N1c1ccc2c(c1)OCCO2 (stereo not given)	-9%
O=C(Nc1ccc(Cl)cn1)c1ccc2ccccc2n1	-1%
Cc1ccc(C(=O)NCC(=O)NCCCc2ccccc2)cc1	13%
COc1cc(/C=C/C(=O)OCC(=O)N2CCCc3ccccc32)ccc1O	12%
COCC(=O)N1CCC[C@@]2(CCN(C(=O)Nc3ccc(OC)cc3)C2)C1	8%
CSCC[C@H](NC(=O)[C@@H]1Cc2ccccc2CN1)C(=O)Nc1ccc2c(c1)OCO2	-5%
O=C(COc1ccc(Cl)cc1)N1CCN(S(=O)(=O)c2ccccc2)CC1	0%
COc1ccc(N2CC(NC(=O)c3ccc(OC(C)C)cc3)CC2=O)cc1 (stereo not given)	9%
CCCn1c(=O)n(C)c(=O)c2c(SCc3cc(C(C)=O)ccc3OCC)nc(C3CC3)nc21	8%
CCC(C)NC(=O)Cn1c(=O)n(-c2ccc(Cl)cc2)c(=O)c2c3c(sc21)CCCC3 (stereo not given)	7%
COc1ccc(C(=O)/C=C/c2cn(CC(O)CN(CC(C)C)CC(C)C)c3ccccc23)cc1 (stereo not given)	7%
COc1ccc(OC)c(S(=O)(=O)N2CCC(C(=O)N3CCOCC3)CC2)c1	-4%
CC(=O)Nc1ccc(S(=O)(=O)NCCC(=O)OCc2ccccc2F)cc1	-1%
NC(=O)NCCCC(=O)O	16%
Cc1cccc(N(CC(=O)NC(C)(C)C)C(=O)CCC(=O)Nc2ccccn2)c1	-5%
COc1ccc(C(=O)C2CCCN(Cc3cccn3-c3ccccn3)C2)c(C)c1 (stereo not given)	0%
CC(CNC(=O)C(=O)NC(C)CCc1ccccc1)Cc1ccccc1 (stereo not given)	3%
CNc1cnn(-c2ccc(C)cc2)c(=O)c1Cl	4%
COc1ccc2c(c1)C(=O)CC(c1ccccc1)O2 (stereo not given)	-8%
